Screening data from PubChem.
Cruzain inh noDet: inhibitors of Trypanosoma cruzi cruzain without detergent | P25779 | purified cruzain, Z-FR-AMC fluorescence, no detergent | Potency, µM, inactives show max response, negative = inhibition, hits mostly inhibitors | 200,000 tested, 2.3% active | AID 1476;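 note: plate controls were enzyme without inhibitor for no effect and buffer without enzyme for full effect; nearly all actives have a fitted effect of over 40% in size; top concentration of the series not given in the record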
Target sequence (P25779 123-467 limits assumed): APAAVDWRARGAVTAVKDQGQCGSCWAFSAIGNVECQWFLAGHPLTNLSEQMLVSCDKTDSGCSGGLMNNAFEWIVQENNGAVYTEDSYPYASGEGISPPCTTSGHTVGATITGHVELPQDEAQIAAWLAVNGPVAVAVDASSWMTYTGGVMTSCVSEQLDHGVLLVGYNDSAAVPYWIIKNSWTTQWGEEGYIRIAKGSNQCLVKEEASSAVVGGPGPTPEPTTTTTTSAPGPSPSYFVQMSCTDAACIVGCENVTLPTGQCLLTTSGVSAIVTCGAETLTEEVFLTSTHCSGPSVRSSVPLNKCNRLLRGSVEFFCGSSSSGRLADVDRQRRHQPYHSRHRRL
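Purified cruzain at 1.5 nM, pre-incubated 15 min with compound at room temperature in 100 mM sodium acetate pH 5.5, 5 mM DTT, 0.00005% Triton X-100. Reaction started with 2 uM Z-FR-AMC; AMC fluorescence increase over 60 s gives rate.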
Cruzain inh Det: blocks cruzain activity in presence of Triton detergent | Potency, µM, without a hit: max response, negative = inhibition, most hits filed as inhibitors | 200,000 tested, 0.43% active | P25779 | purified cruzain, Z-FR-AMC fluorescence, 0.01% Triton;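 note: plate controls were neutral wells for no effect and buffer without enzyme for full effect; nearly all actives have a fitted effect of over 40% in size; top concentration of the series not given in the record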
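Z-FR-AMC hydrolysis (2 uM substrate) by cruzain (1.5 nM) monitored kinetically at ex 360/em 450 nm after 15 min room-temperature compound exposure; 0.01% Triton X-100, pH 5.5, 5 mM DTT.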
Numbers without * were called inactive; ? = inconclusive. Calls come from the whole dose curve; as a rule, active = well fitted curve in the direction sought with a large enough effect; inconclusive = small, poorly fitted or top-dose-only effect, or another doubt; inactive = no such curve, though single readings can be large; an effect the other way counts as inactive or inconclusive. Potency is the fitted concentration of half-maximal effect. Only part of the results is shown. The share of hits here may be higher or lower than overall.

SMILES | Cruzain inh noDet | Cruzain inh Det
CCCn1c(C)nc2c(NCCN3CCCC3)nc(C)nc21 | 5.0% | 2.5%
CC/C=C\C/C=C\C/C=C\C/C=C\C/C=C\C/C=C\CCC(N)=O | -4.8% | 1.3%
O=c1c2ccccc2oc2cc(O)c(C3COCC(CO)C(O)C(O)C3O)c(O)c12 (stereo not drawn) | 0.1% | -2.7%
COC(=O)[C@@]1(Cc2ccccc2)[C@H]2c3cc(C(=O)N4CCCC4)n(CCN4CNCC4=O)c3C[C@H]2CN1C(=O)c1ccccc1 | ? | 1.6%
O=CC=O | -1.5% | 6.0%
CCCCC1=CC2=CC(=O)C(C)(OC(=O)CCC(=O)OC)C(=O)C2=CO1 (stereo not drawn) | 2.1% | 4.5%
COC(=O)[C@H]1C[C@H]2CC[C@H](O)C[C@H]2N1CC1CC1 | -0.2% | 1.7%
CN1CCCN=C1/C=C\c1cccs1 | -6.2% | -1.5%
O=C(Nc1ccccc1)OC[C@H](CN1CCCCC1)OC(=O)Nc1ccccc1 | -6.1% | -5.1%
COC(=O)c1ccc(C(NC(=O)OCc2ccccc2)/C(C)=C/[C@@H](C)C(=O)NCc2nc3ccccc3s2)cc1 (stereo partly drawn) | 4.0% | -11.0%
CC#N | -8.6% | 1.9%
C=C1C(CCl)(CCl)C2(Cl)C(Cl)C(Cl)C1(Cl)C2(Cl)Cl (stereo not drawn) | -11.6% | -5.1%
CCCC[C@@H]1C[C@H]1[C@@H](NP(=O)(c1ccccc1)c1ccccc1)c1ccccc1OC | -0.6% | -5.6%
CN(C)CCCNCCCN | -1.2% | 2.9%
COC(=O)[C@@]1(Cc2ccc(F)cc2)[C@H]2c3cc(C(=O)N(C)C)n(Cc4cccc5ccccc45)c3C[C@H]2CN1C(=O)c1ccccc1 | ? | 0.9%
CC1(C)C(=O)C(c2ccccc2)=C2CN3C(=O)N(CCc4ccccc4)C(=O)C3(Cc3ccc(C(F)(F)F)cc3)C=C21 (stereo not drawn) | ? | -3.8%
COC(=O)c1ccc(C(NC(=O)OCc2ccccc2)/C(=C/[C@@H](C)C(=O)NC2CCCCC2)c2cccnc2)cc1 (stereo partly drawn) | 13.9% | -0.6%
S=C([S-])NCCNC(=S)[S-].[Zn+2] | ? | 31.6µM*
COc1ccc2c(c1)C(=O)[C@@H](OC(=O)NS(=O)(=O)c1ccc(C)cc1)[C@H](c1ccc(OC)c(Br)c1)O2 | -1.5% | -2.1%
CCCCCCCCCCCCCCCCO | 6.5% | 0.0%
CN(C)CCn1nnnc1SCC1=C(C(=O)O)N2C(=O)[C@@H](NC(=O)Cc3csc(N)n3)[C@@H]2SC1 | -2.3% | -7.6%
O=C(O)c1ccc(NS(=O)(=O)c2ccsc2C(=O)O)c(O)c1 | -5.0% | -1.5%
CC1(C)O[C@H]2C[C@@H]3[C@H]4CCC5=CC(=O)CC[C@@]5(C)[C@]4(F)[C@@H](O)C[C@@]3(C)[C@@]2(C(=O)CCl)O1 | -0.7% | -1.8%
C[C@@H]1CCC[C@H](C)N1 | -0.9% | -0.1%
CC(C)C[C@@H](CC(=O)N[C@@H](CCC(=O)O)CC(=O)O)NC(=O)[C@@H]1CNCC[C@H]1NC(=O)C[C@H](CCCN)NC(=O)C[C@H](Cc1c[nH]c2ccccc12)NC(=O)[C@@H]1CCCC[C@H]1N | -10.4% | -3.5%
Oc1c(Cl)cc(Cl)c(Cl)c1Cl | -1.0% | -3.4%
C=C/C(=C\C)C[C@@H](CC(=O)N[C@@H](CCC(=O)O)CC(=O)O)NC(=O)[C@@H]1CNCC[C@H]1NC(=O)C[C@@H](NC(=O)C[C@H](Cc1ccccc1)NC(=O)[C@@H]1CCCC[C@H]1N)C(C)C | 11.4% | 2.0%
C=CCOc1ccccc1OC[C@H](O)CNC(C)C | -9.1% | 5.6%
ICCc1ccccc1 | ? | 7.0%
OC[C@@H]1[C@@H](c2ccc(F)cc2)C(c2ccc(F)cc2)=NN1c1ccccc1 | 20µM* | -2.5%

In the list so far, four have fluorine.
SMILES | Cruzain inh noDet | Cruzain inh Det
COC(=O)[C@@]1(Cc2ccc(F)cc2)[C@H]2c3cc(C(=O)N(C)C)n(Cc4cccc5ccccc45)c3C[C@H]2CN1C(=O)c1ccccc1 | ? | 0.9%
CC1(C)C(=O)C(c2ccccc2)=C2CN3C(=O)N(CCc4ccccc4)C(=O)C3(Cc3ccc(C(F)(F)F)cc3)C=C21 (stereo not drawn) | ? | -3.8%
CC1(C)O[C@H]2C[C@@H]3[C@H]4CCC5=CC(=O)CC[C@@]5(C)[C@]4(F)[C@@H](O)C[C@@]3(C)[C@@]2(C(=O)CCl)O1 | -0.7% | -1.8%
OC[C@@H]1[C@@H](c2ccc(F)cc2)C(c2ccc(F)cc2)=NN1c1ccccc1 | 20µM* | -2.5%

(more compounds)
SMILES | Cruzain inh noDet | Cruzain inh Det
C=C(C(=O)OC)C(NC(=O)OC)c1ccccc1 (stereo not drawn) | -3.3% | 4.4%
FC(F)(F)c1ccc(CN2C[C@@H]3C(c4ccc(C(F)(F)F)cc4)C4(c5ccccc5)CC3(C4)[C@H]2c2ccccc2)cc1 (stereo partly drawn) | -11.9% | -5.9%
Cc1ccccc1C1CC(=O)Oc2ccc(C(C)(C)C)cc21 (stereo not drawn) | 4.0% | -4.1%
CCN1C(=O)[C@@H]2[C@H](C1=O)[C@@H]1C[C@H]3C(=O)N(CC)C(=O)[C@H]3[C@@H]3C1=C(C(=O)N1C(=O)O/C(=N\CC4CC4)[C@]31C)[C@@H]2C | -5.2% | 1.8%
CC1CC2OC2/C=C\C=C/C(=O)Cc2c(Cl)c(O)cc(O)c2C(=O)O1 (stereo not drawn) | -2.8% | 0.2%
COC(=O)C1CC1C(NC(=O)[C@H]1CCCCN1)c1ccccc1 (stereo partly drawn) | -3.5% | 0.1%
COC(=O)[C@H]1CC2(CC=C(C)C)C(=O)[C@@](CC=C(C)C)(C(=O)C(C(=O)c3ccccc3)=C2OC)C1(C)C (tested in a mixture with another compound) | ? | 4.4%
CCC1=C(OC(=O)N(CC)CC)N2C(=O)OC(=NCCOC)[C@]2(C)[C@H]2C1=CC[C@H]1C(=O)N(C)C(=O)[C@H]12 | ? | -2.0%
CC(C)C[C@@H](CC(=O)N[C@H](CC(=O)N[C@@H]1CCCC[C@H]1C(=O)N[C@H](CC(=O)N[C@@H](CCC(=O)O)CC(=O)O)Cc1ccccc1)C(C)C)NC(=O)[C@@H]1CNCC[C@H]1N | -0.2% | 5.6%
CCCCCCCCCc1ccc(OCCOCCOCCOCCOCCOCCOCCOCCOCCO)cc1 | ? | -4.4%

Record cards, as listed above. Order of values: Cruzain inh noDet | Cruzain inh Det
Results for COC(=O)C1CC1C(NC(=O)[C@H]1CCCCN1)c1ccccc1 (stereo partly drawn) = -3.5% | 0.1%
Results for CCC1=C(OC(=O)N(CC)CC)N2C(=O)OC(=NCCOC)[C@]2(C)[C@H]2C1=CC[C@H]1C(=O)N(C)C(=O)[C@H]12 = ? | -2.0%
Results for CC1CC2OC2/C=C\C=C/C(=O)Cc2c(Cl)c(O)cc(O)c2C(=O)O1 (stereo not drawn) = -2.8% | 0.2%

(further entries)
SMILES | Cruzain inh noDet | Cruzain inh Det
C=CCC(O)(/C=C/c1ccccc1)c1ccccc1 (stereo not drawn) | -1.1% | 0.0%
Cc1ccc(N)cc1[N+](=O)[O-] | -5.5% | -2.3%
CC(=O)Oc1cc(C(F)(F)F)ccc1C(=O)O | -4.1% | -6.5%
CC(=O)N1C2(C=CC1(C)C(=O)NCc1ccccn1)CCCCC2 (stereo not drawn) | -8.1% | 0.1%
O=CCCCC=O | -6.1% | 5.6%
C=CC(C)=O | 0.7% | 7.3%
CC(C)[C@]1(NC(=O)[C@@H]2C=C3c4cccc5[nH]cc(c45)C[C@H]3N(C)C2)O[C@@]2(O)C3CCCN3C(=O)[C@H](Cc3ccccc3)N2C1=O (stereo partly drawn) | 17.7% | 4.0%
COc1cccc(-c2cc(=O)c3cc(NC(=O)c4cccnc4)ccc3[nH]2)c1 | -4.0% | -0.5%
COC(=O)CNC(=O)C1(CC(C)C)C=CCN1C(=O)c1ccccc1 (stereo not drawn) | -6.8% | -4.1%
CCCCC/C=C\C/C=C\CCCCCCCC(=O)NCCCC(=O)O | 4.7% | -2.0%
COc1ccc2c(c1OC)C(Cc1ccccc1)N1CCc3cc4c(cc3C1=C2)OCO4 (stereo not drawn) | 12.5% | -1.2%
CNC1CC(N)[C@H](O)[C@@H](O[C@@H]2OC(CO)C3OC4(OC(C(N)CO)C(O)C(O)C4O)O[C@@H]3[C@H]2O)C1O (stereo partly drawn) | -5.4% | -3.9%
CC(=O)CC(=O)Nc1ccccc1 | 1.0% | 6.0%
CN1C(=O)C[C@H](c2ccccc2)C1=O | -10.0% | -2.7%
COc1cc(OC)c2c(c1)OC(=O)CC2c1ccccc1OC (stereo not drawn) | -13.9% | 0.0%
O=c1c(O)c(-c2ccc(O)cc2)oc2ccc(O)cc12 | 2.1% | 2.1%
O=C(N[C@@H](c1ccccc1)[C@@H]1C[C@H]1C(=O)NCc1ccccc1)OCc1ccccc1 | -17.9% | 4.9%
CCCN1CCC[C@@H]2Cc3cn[nH]c3C[C@H]21 | 1.9% | -0.6%
CN1CCN(C2Cc3ccccc3Sc3ccc(S)cc32)CC1 (stereo not drawn) | -7.7% | -1.2%
CCCCC(CC)COCC1CO1 (stereo not drawn) | -2.6% | 2.4%

Of the compounds above, two contain a thiophene ring, fused or not:
SMILES | Cruzain inh noDet | Cruzain inh Det
CN1CCCN=C1/C=C\c1cccs1 | -6.2% | -1.5%
O=C(O)c1ccc(NS(=O)(=O)c2ccsc2C(=O)O)c(O)c1 | -5.0% | -1.5%

New compounds follow
SMILES | Cruzain inh noDet | Cruzain inh Det
CCOC(C)=O | ? | 3.2%
COc1ccc(-c2oc3ccccc3c(=O)c2O)cc1 | 0.7% | 3.0%
O=c1c(O)c(-c2cccc(O)c2)oc2ccccc12 | -2.5% | -1.8%
CNc1ccc(O)cc1 | -6.9% | -5.3%
COC(=O)[C@@H]1C[C@H]2CC[C@H](O)C[C@H]2N1Cc1ccc(N2CCOCC2)cc1 | -1.4% | -0.4%
COC(=O)c1ccc(C(/C=C/[C@@H](C)C(=O)N(C)C)NC(=O)OCc2ccccc2)cc1 (stereo partly drawn) | 12.9% | -2.8%
CCCBr | -6.6% | 3.5%
CC(C)(C)[C@]1(O)C[C@@H]2OC(=O)CC23C(=O)O[C@@H]2OC(=O)[C@H](O)C231 (stereo partly drawn) | -0.1% | -1.7%
COC1OC(CO)C(OC2OC(C(=O)O)C(OC3OC(COS(=O)(=O)O)C(OC4OC(C(=O)O)C(OC5OC(CO)C(OC6OC(C(=O)O)C(OC7OC(COS(=O)(=O)O)C(OC8OC(C(=O)O)=C[C@H](O)C8OS(=O)(=O)O)C(O)C7NC(C)=O)[C@@H](O)C6O)C(O)C5NC(C)=O)[C@@H](O)C4O)C(O)C3NC(C)=O)[C@@H](O)C2O)C(O)C1NC(C)=O (stereo partly drawn) | 5.6% | 1.0%
Cc1ccc(CNC(=O)[C@H](C)[C@@H]2C[C@@]2(C)[C@@H](NC(=O)OCc2ccccc2)c2ccccc2)o1 | -7.5% | -8.4%
C[C@H]1C(c2cccc(Cl)c2)=NN(c2ccccc2)[C@@H]1CO | ? | 0.4%
C=CCn1c(=O)n(CC=C)c(=O)n(CC=C)c1=O | -1.9% | 3.5%
COc1ccc(C2=N[C@H](c3ccccc3)CO2)cc1 | -20.7% | 1.4%
O=C(Oc1ccccc1)C1O[C@@H]1c1ccccc1 (stereo partly drawn) | -1.2% | 3.9%
CCC1=C2CC[C@H]3C(=O)NC(=O)[C@H]3[C@H]2[C@@]2(C)C(=O)N(CC3CC3)C(=O)N2C1=O | -10.9% | -5.3%
COc1cc2c(cc1O)C(CCc1ccc(Cl)cc1)N(C)CC2 (stereo not drawn) | -5.3% | -16.4%
CC(C)S | 11.3% | 3.4%
CC(C)Cn1nnnc1S(=O)(=O)CCc1ccccc1 | 3.5% | 4.3%
CC(C)(C)NC[C@H](O)c1cc(Cl)c(N)c(Cl)c1 | -0.7% | -1.9%
CCCCC/C=C\C[C@@H]1O[C@H]1C(O)/C=C\C/C=C\CCCC(=O)O (stereo partly drawn) | -9.1% | 1.1%
C[C@H](Oc1ccccc1)C(=O)N[C@@H]1C(=O)N2[C@@H]1SC(C)(C)[C@@H]2C(=O)O | -1.5% | 0.6%
BrC1C(Br)C(Br)C(Br)C(Br)C1Br (stereo not drawn) | 5.0% | -4.7%
CC/C=C\C[C@H](O)/C=C/C=C\C/C=C\C/C=C\CCCC(=O)O | -6.0% | 4.5%
CCCn1c(C)nc2c(NC(C)CCCN(CC)CC)nc(C)nc21 (stereo not drawn) | -0.6% | 1.0%
O=c1cc(-c2ccccc2)[nH]c2ccc(Cl)cc12 | -2.2% | -2.3%
C[C@H]1CN(C2CCC(C#N)(c3ccc(F)cc3)CC2)CC[C@@]1(C(=O)O)c1ccccc1 (stereo partly drawn) | -10.6% | 1.4%
CC(C)(C)OC(=O)NCCCCC1=CC2=CC(=O)C(C)(OC(=O)c3cccs3)C(=O)C2=CO1 (stereo not drawn) | -8.4% | -6.2%
O=C(O)CCl | -2.8% | 5.3%
COC(=O)NC1C=CCCC1C(C)=O (stereo not drawn) | 6.3% | 1.4%
C=C(C)C(=O)/C=C/c1ccc(C(F)(F)F)cc1 | -0.1% | 2.2%
Clc1cccc(C(Cl)(Cl)Cl)n1 | -3.0% | 0.2%
